eIF4H inh: human eIF4H binding inhibitors, primary screen, translation initiation inhibitor project, biochemical, uHTS, fluorescence polarization; eIF4H fluorescence polarization binding assay; inhibition, % at 35 µM; hit rate 0.94% among 290,000;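 active means 50% or more with normal probe brightness, or confirmed in later tests; inconclusive means above 50% with abnormal brightness, or retests that disagree; inactive means below 50% or failed in later tests; about a fifth of its hits are not listed in these tables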;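 further: calls also rest on retests at 20 µM and on dose response follow-up; 0% = protein and probe with vehicle and 100% = probe without protein; strong numbers were not always called active; many hits fall short of the cut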
UUG fidelity: modulators of yeast start codon fidelity, primary screen, whole organism, S. cerevisiae, single point, plate reader. activity score, % at 18.7 µM. S. cerevisiae UUG-firefly luciferase reporter, luminescence/redox ratio. hit rate 0.13% among 350,000. AID 602363, 2012;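 active means replicate mean at a twofold rise or more, about +100% in these data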;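 further: firefly luciferase made from a UUG start codon reports start codon fidelity; reporter light over untreated wells divided by growth signal over untreated wells; some hits fall short of that in this replicate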
HIV Env fusion: inhibitors of HIV-1 Env-driven cell-cell fusion, primary screen, HeLa-JRFL effector, CEM21 target cells, luciferase; inhibition, % at 12.3 µM; hit rate 1.1% among 360,000; AID 651610, 2012;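 active means mean replicate inhibition score of at least 50 and every replicate individually at or above 50; inconclusive means only one of the two criteria met; inactive means mean below 50 and not all replicates reaching 50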;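 further: 0% = plate neutral controls and 100% = maraviroc near 300 nM; one replicate is shown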
Rce1 inhib: yeast Rce1p protease inhibitors, primary screen, biochemical, fluorescence, cell-free homogeneous | yeast membranes, quenched prenylated peptide cleavage fluorescence | calls only | hit rate 0.27% among 290,000 | AID 2563, 2010;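 active means fall in fluorescence gain of 50% or more versus controls, with final raw signal at or below 3038400; inconclusive means same 50% fall but final raw signal above 3038400; inactive means fall in fluorescence gain under 50%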;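 further: plate controls were neutral control wells for no effect and wells lacking membranes for full effect; tested at 10 µM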
Target sequence (Q03530 whole entry, looked up): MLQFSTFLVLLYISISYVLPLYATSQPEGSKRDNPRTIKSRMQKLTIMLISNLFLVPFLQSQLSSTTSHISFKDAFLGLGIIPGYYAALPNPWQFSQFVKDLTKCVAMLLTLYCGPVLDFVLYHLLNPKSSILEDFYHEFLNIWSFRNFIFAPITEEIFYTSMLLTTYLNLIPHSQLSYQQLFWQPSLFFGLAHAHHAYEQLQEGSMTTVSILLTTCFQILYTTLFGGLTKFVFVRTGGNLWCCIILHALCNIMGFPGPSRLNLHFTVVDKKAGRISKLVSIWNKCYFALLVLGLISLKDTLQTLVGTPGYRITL
MT1-MMP act inh: blockers of MT1-MMP proenzyme processing, primary screen, HT1080 RFP-PRO-GFP cells, GFP/RFP fluorescence; GFP/RFP ratio fluorescence, overnight; percent of plate control window, DMSO zero; hit rate 0.061% among 360,000; GFP/RFP ratio change, % at 20 µM; Matrix metalloproteinase-14 (Homo sapiens), P50281;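 active means GFP/RFP ratio change of at least 30% with cell ATP level not reduced by more than half and red fluorescence within 50% of control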; further: strong numbers were not always called active
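Assay system: HT1080 cells carrying an RFP-PRO-GFP reporter | Dosing: Single dose of 20 µM compound, 1% DMSO final | Incubation: Cells overnight before dosing, compound overnight, 37 °C, 5% CO2 | Evaluation: GFP/RFP fluorescence ratio | Control set: DMSO and RFP-L50D-GFP cell wells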
PABP polyA inh: PABP poly(A) RNA binding inhibitors, primary screen, biochemical, fluorescence polarization, uHTS; inhibition, % at 35 µM; hit rate 1% among 290,000; AID 2014, 2009;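 active means 50% or more with normal probe brightness, or confirmed in later tests; inconclusive means above 50% with abnormal brightness, or retests that disagree; inactive means below 50% or failed in later tests; about a fifth of its hits are not listed in these tables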;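 further: calls also rest on retests at 20 µM and on dose response follow-up; controls were probe without protein and protein plus probe with vehicle; some compounds called inactive have numbers as strong as hits; many hits fall short of the cut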
CSC inhib: cancer stem cell viability inhibitors, primary screen, luminescence | cancer stem cell-like cells viability | inhibition, % at 7.5 µM | hit rate 1.1% among 300,000 | AID 2717, 2010;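 active means mean at 75% or more and at least half the replicates too; inconclusive means mean and replicates disagree; tested in HMLE shEcad cells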;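 further: 0% = median of negative and 100% = median of positive control wells; the first replicate is given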
eIF4H inh retest: further read-out of eIF4H inh, marked with its call; inhibition, %; compound at 20 µM; confirmation average;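 mean of two retest wells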
PABP polyA inh retest: recorded beside PABP polyA inh, whose call it bears; inhibition, %; compound at 20 µM; confirmation repeats;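 mean of two retest wells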
MT1-MMP act inh RFP: recorded beside MT1-MMP act inh, whose call it bears; RFP signal change, %; measured here: RFP expression control read;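 0 = vehicle wells; hits needed this value within 50% of zero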
* = called active by the depositor; i = inactive; u = inconclusive; x = not tested or not shown. This is a subset; the hit share may differ from the screen's.

SMILES	eIF4H inh	UUG fidelity	HIV Env fusion	Rce1 inhib	MT1-MMP act inh	MT1-MMP act inh RFP	PABP polyA inh	CSC inhib	others
O=C(c1ccc2c(=O)n(CCc3ccccc3)c(=O)[nH]c2c1)N1CCN(c2ccc(F)cc2)CC1	0	-10	52	i	0	-22	10	x
CC(C)(C)n1nnnc1C(c1ccccc1F)N(Cc1ccco1)CC1CCCO1 (stereo not given)	4	-3	x	i	-7	-5	5	x
COc1ccc(NC(=O)C2CCN(C(=O)[C@@H]3Cc4ccccc4CN3)CC2)cc1	-14	-10	-15	i	2	3	15	0
COc1cc(C)c(Cl)cc1S(=O)(=O)NCc1ccccn1	1	-26	6	x	1	0	3	-6
O=C(CSCc1ccccc1)Nc1ccc(Cl)cn1	-3	x	x	i	-3	-3	10	15
CCCc1cc(=O)[nH]c2nnc(SCC(=O)NC3CCCC3)n12	x	x	6	i	-1	1	x	-12
Cc1ccc(C2=NOC(C)(c3nnc(-c4cccc(Cl)c4)o3)C2)cc1 (stereo not given)	x	-3	20	i	3	4	x	9
COc1ccccc1-c1noc(CCC(=O)Nc2cccc(C(F)(F)F)c2)n1	-7	x	2	i	-1	-7	-4	1
O=[N+]([O-])c1ccc(C=Nc2ccc(Cl)c([N+](=O)[O-])c2)s1	1	x	-34	x	0	0	3	x
CCN(CC(=O)Nc1c(F)cccc1F)C(=O)C1CCN(C(=O)c2ccc(Cl)cc2)CC1	x	-9	-6	i	-1	0	x	2
CC1=C(C(=O)Nc2cc(C(=O)NCCC(C)C)ccc2C)SCCO1	7	-12	-8	i	0	-1	4	-9
C(=N\Nc1nc(N2CCCCCC2)nc(N2CCCCCC2)n1)/c1ccccc1	1	x	9	i	-14	-11	3	x
COc1ccc(OCCC(=O)NCCN2CCOCC2)cc1	-4	x	-4	i	2	2	-15	13
O=C(NCc1cccnc1)c1cc(-c2ccco2)on1	-5	-16	x	i	-4	-6	-4	-9
CC(=O)c1ccc(N(C(=O)Cn2nnc3ccccc32)C(C(=O)NCc2ccccc2)c2ccccn2)cc1 (stereo not given)	-14	-12	-6	i	-2	-3	-1	2
Cc1ccc(C(=O)N(CN2CCCC2=O)c2ccc(F)cc2)cc1C	-1	-9	-18	i	1	1	-6	-6
CC(C)(C)c1cc(NC(=O)CCl)n(-c2ccccc2)n1	8	-8	22	i	-2	-4	3	15
CCC(=O)N1CCc2cc(Br)cc(S(=O)(=O)CCC(=O)NCc3ccco3)c21	1	-26	x	i	-2	7	-6	5
CC1CCCCN1C(=O)CN1CCN(S(=O)(=O)c2ccc(Br)cc2Cl)CC1 (stereo not given)	x	-8	3	x	7	-2	x	13
N#C/C(=C/Nc1ccccc1F)S(=O)(=O)c1ccc(Cl)cc1	0	x	18	i	0	-2	-1	17
CCCCn1c(=O)c(C(=O)N/N=C/c2ccc(F)cc2)c(O)c2ccccc21	10	x	x	i	x	x	9	2
O=C(CNc1ccc2ccccc2c1)NNC1=NCCC1	-5	x	2	i	4	9	-5	-5
O=C(CN1C(=O)C2CCCCC2C1=O)OCC(=O)c1ccc(F)cc1 (stereo not given)	x	-37	-4	x	-1	2	x	x
COc1ccc(C(=O)NCc2nnc(SCC(=O)N3CCc4ccccc43)n2C2CCCCC2)cc1	3	-2	-19	i	-2	-3	3	-8
CC(Cc1cccs1)NC(=S)Nc1ccc(F)cc1 (stereo not given)	7	-15	-9	i	4	-3	27	-17

Continued.
SMILES	eIF4H inh	UUG fidelity	HIV Env fusion	Rce1 inhib	MT1-MMP act inh	MT1-MMP act inh RFP	PABP polyA inh	CSC inhib	others
Cc1cc(C)cc(OCc2ccc(C(=O)NN)o2)c1	-7	x	-4	i	-3	0	-6	-5
Cc1ccc2nc(N3C(=O)CNC3=S)sc2c1	10	11	3	i	5	-2	-2	13
COCCCNC(=O)c1ccc(CS(=O)(=O)c2ccc(OC)cc2)o1	3	3	-55	i	0	-1	-7	-14
CCOc1ccc(S(=O)(=O)Nc2cccc(C(=O)NCC3(N4CCCCC4)CCCCC3)c2)cc1	x	x	-11	i	4	-9	x	6
Cc1ccc(C)c2[nH]c(=O)c(CCNC(=O)c3ccc4c(c3)OCO4)cc12	-9	-9	x	i	5	4	-3	13
CC1CN(c2ccc([N+](=O)[O-])c(NCCOc3ccc(Cl)cc3)c2)CC(C)N1 (stereo not given)	-1	-10	-10	i	9	0	-16	108*
Cc1csc(NC(=O)CNS(=O)(=O)c2cccs2)n1	-6	x	17	i	-4	-3	-1	-14
Cc1ccc(Cl)cc1N1CCN(C(=O)c2noc(C)c2[N+](=O)[O-])CC1	2	-4	1	i	-10	-11	-6	x
Cc1ccnc(NC(=O)Cn2c(=O)oc3ccccc32)c1	-6	-8	-41	i	-3	-1	16	-3
Cc1nn(-c2ncc(C(F)(F)F)cc2Cl)c(=O)n1-c1ccc(F)cc1	-9	1	-14	i	-1	3	-8	-13
COC(=O)C1=C(C)Nc2nc(-c3ccccc3)nn2C1c1ccc(C)o1 (stereo not given)	-8	-6	-81	i	-10	-11	-4	3
CCC(NC(=O)c1ccccc1NC(=O)c1ccccc1)C(=O)NNC(=O)CSc1nc2ccccc2o1 (stereo not given)	-2	x	-6	i	4	2	-17	-8
Cc1nn(Cc2cccc(C(=O)O)c2)c(C)c1[N+](=O)[O-]	-4	-1	1	i	-1	0	-1	-15
O=C(N/N=C1\CCCc2oc(C(=O)O)cc21)c1ccccc1	2	-9	14	i	8	5	4	-7
CC(=O)c1ccc(NC(=O)CCc2nnc3ccc(NCc4ccco4)nn23)cc1	38	-26	-28	i	4	2	11	16
Cc1c(C(=O)NCCSCc2ccc(F)cc2)cnn1-c1ccc(Cl)cc1	-8	-12	14	i	2	-5	3	22
O=C(NCc1ccco1)C(NS(=O)(=O)c1cccc2nsnc12)c1ccccc1 (stereo not given)	4	-9	-2	i	1	4	4	-3
COc1ccc(NS(=O)(=O)c2cccc(C(=O)NNC(=O)NCCCl)c2)cc1	7	x	-13	i	2	3	-17	-10
O=C(CCc1nnc(Cc2cccc(C(F)(F)F)c2)o1)NC1CC1	-18	x	-3	i	1	3	-7	-4
CCOC(=O)/C(C#N)=C/c1ccc(N2CCN(Cc3ccccc3)CC2)cc1	u	-26	22	i	-11	-3	-11	-25
O=C(Nc1ccc2c(c1)OCO2)c1cc2ncc(Br)cn2n1	54*	-20	x	i	2	3	10*	x	eIF4H inh retest=75*;PABP polyA inh retest=57*
Cc1ccc(-c2nnc(-c3ccccc3)o2)cc1Br	x	-12	-161	i	-2	-1	x	1
CCn1nc(C)c(/C=N/NC(=O)Cn2cncn2)c1C	0	-7	12	i	4	3	2	-9
CCCCN(C(=O)CSc1nnnn1C)C1CCS(=O)(=O)C1 (stereo not given)	x	-20	5	x	1	0	x	-7
O=[N+]([O-])c1cccc(-c2cn(-c3ccccc3)c(=S)[nH]2)c1	3	x	-17	i	2	0	-6	52

Next section
SMILES	eIF4H inh	UUG fidelity	HIV Env fusion	Rce1 inhib	MT1-MMP act inh	MT1-MMP act inh RFP	PABP polyA inh	CSC inhib	others
COCc1ccc(-c2c(-c3cccc(OC)c3)sc3ccc(OC)cc23)cc1	x	-1	-9	x	0	-1	x	47
CCn1c(-c2cc(-c3cc(C)ccc3C)nc3ccccc23)n[nH]c1=S	6	x	1	i	0	0	-4	11
O=C(Cc1ccc(F)cc1)NC1CCCCCC1	-7	-31	-25	i	1	-2	-9	-18
COc1ccc(CC(NC(C)=O)C(=O)NC2CCN(c3ncccc3[N+](=O)[O-])CC2)cc1 (stereo not given)	-4	x	10	i	1	0	-8	11
O=S(=O)(Nc1nc2ccccc2nc1Cl)c1ccc(Br)cc1	11	-23	7	i	-4	-3	13	9
Cc1cc(=O)oc2cc(OCc3ccc(C(=O)N4CCN(c5ccccc5)CC4)cc3)ccc12	15	x	x	i	-7	-14	-2	12
CC1SC(C)C(=O)N(CC(=O)Nc2ccc3c(c2)OCO3)C1=O (stereo not given)	7	x	3	i	-1	7	58	4	eIF4H inh retest=10;PABP polyA inh retest=1
Cc1cccc(NC(=O)CSc2nnc(CSc3nc(C)cc(C)n3)o2)c1	-1	14	-189	i	-1	4	-1	x
CC(C)OCCCn1c(=NC(=O)c2cccs2)c(C#N)cc2c(=O)n3ccccc3nc21	89	-10	7	i	-5	-1	43	-3	eIF4H inh retest=-3;PABP polyA inh retest=4
COC(=O)c1cccc(NC(=O)c2ccc[n+]([O-])c2)c1	-5	-5	-9	i	0	-2	15	-14
Cc1csc(=O)n1CC(=O)OC(C)C(=O)Nc1cccc(Cl)c1 (stereo not given)	x	-8	-13	i	0	3	x	-3
CSCC[C@H](NC(=O)OC(C)(C)C)c1nnc(SCC(N)=O)o1	10	x	x	i	-3	1	-1	-6
O=C(CSc1nnnn1C1CCCC1)N1CCCc2ccccc21	2	-8	x	i	0	4	7	x
FC(F)(F)c1cccc(NC(=S)NNC(=S)Nc2ccc(Cl)cc2)c1	4	x	x	i	x	x	2	132*
CCCCOc1ccc(-c2nnn(CC(=O)NCc3ccco3)n2)cc1	5	-2	x	i	1	-11	10	x
CCCN1C2CCCC1CC(NC(=O)Nc1cccc(C(C)=O)c1)C2 (stereo not given)	3	-7	-403	i	-2	1	5	-14
CC(=O)Nc1cncc(-c2ccccc2C(C)=O)n1	x	6	-13	x	-4	3	x	x
CCOc1cc(C(N)=O)cc(Br)c1OC	8.5*	-7	35	i	-6	-7	68	-16	eIF4H inh retest=83*;PABP polyA inh retest=37
CN(C)CCN(Cc1cc2cc3c(cc2[nH]c1=O)OCO3)C(=S)NCC1CCCO1 (stereo not given)	2	x	5	i	3	-6	-12	10
Cc1cc(NNC(=O)c2ccccc2)nc(NNC(=O)c2ccccc2)n1	2	x	-6	i	-1	0	-11	-9
Cc1ccc(S(=O)(=O)N2CCN(c3ccc([N+](=O)[O-])c4cccnc34)CC2)cc1	-5	-16	-5	i	-2	-2	10	18
COCCNC(=O)Cc1ccc(Br)cc1	-6	-13	-13	i	-2	0	-9	-10
COCCn1c(=NC(=O)c2ccc(S(=O)(=O)N3CCc4ccccc4C3)cc2)sc2cc(S(N)(=O)=O)ccc21	-4	x	x	i	-5	-6	2	4
CCN(CC)c1ccc(C2Nc3cccc4cccc(c34)N2)c(O)c1	10	-3	x	x	5	0	3	18
C[C@H](NC(=O)c1nc[nH]c1C(=O)NCC(=O)OC(C)(C)C)C(=O)OC(C)(C)C	-8	-2	-13	i	10	0	-4	-7
CCOC(=O)C1(Cc2ccc(OC)cc2)CCN(C(=O)CC2CCC(=O)N2)CC1 (stereo not given)	-8	x	-9	i	-2	0	-7	-16
CC(C)(C)NC(=O)c1ccc(C(=O)NC(C)(C)C)cc1	5	x	x	i	x	x	7	x
O=c1[nH]n(-c2ccc([N+](=O)[O-])cc2)c(=O)c2ccccc12	16	x	3	i	9	10	-1	-17
C/C(=N\NC(=O)C(=O)Nc1cccc(C(F)(F)F)c1)c1ccc(Cl)s1	-3	-23	-103	i	-6	-14	-8	-5
